Biofilm kill mix: mixtures killing C. albicans biofilm; C. albicans biofilm persisters + clotrimazole, fluorescence viability; primary screen in compound mixtures of four per well; 0.02% of 120,000 active; AID 1242; inhibition, % at 7.6 µM;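 active means inhibition above 30.3% in the primary screen of four-compound pools, then above 30% when the compound was retested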;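 further: compounds exposed to preformed 24 h biofilms for 48 h; the number belongs to the whole pool; some results filed as inactive read as strong as hits; inactives centre near 12; 0% = biofilm with clotrimazole alone and 100% = kill control; retested singly at about 60 µM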
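System: C. albicans CAF4-2 wild-type biofilms; Medium: RPMI/MOPS medium, pH 7.0; Reagent: Clotrimazole, 50 µg/mL; Times: biofilm formation 24 h, compound exposure 48 h, 37 °C; Detection: 2-h Alamar Blue fluorescence, 535/590 nm excitation/emission; Evaluation: percent inhibition of biofilm viability.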
* hit, by the source's call. Not all compounds are listed; the hit share may differ from the screen's.

SMILES	Biofilm kill mix
C=CCNC(=S)NNC(=O)c1cc(C)nc2ccccc12	20.9
COc1cc(OC)c(C(=O)N2CCCC2)cc1OC	14.3
Cc1nc(SCC(=O)O)c(C#N)c(C)c1CC(=O)c1ccccc1	4.6
Cc1cc(=O)oc2cc(OCC(=O)OCC(=O)NCCc3ccccc3)ccc12	12.1
N#Cc1ccc(-c2ccc(OCC(=O)NCC(=O)Nc3ccc(F)c(F)c3F)cc2)cc1	15.3
Cn1[nH]c(C(F)(F)F)cc1=O	9.5
CC(=O)c1ccc(N2CCC(C)CC2)c(F)c1	4.9
Cc1[nH]c2ccccc2c1C(=O)/C=C\c1ccccc1Cl	13.0
COc1ccc(Nc2oc(-c3ccccc3F)nc2C#N)cc1	16.4
Cc1ccc(OCC(=O)N2CC3(C)CC2CC(C)(C)C3)cc1 (stereo not given)	7.7
CCCOc1cc(C)c(Cl)cc1S(=O)(=O)N(CC)CC	14.3
COc1ccc(NC(=O)Nc2ccccn2)cc1OC	17.1
CC(C)Oc1ccccc1/C=N/NC(=O)c1ccc(F)cc1	1.7
O=C(N/N=C/c1cccnc1)c1ccccc1OCc1cccc(Br)c1	14.7
CC1CCCN(c2nc(N(C)c3ccccc3)nc(N)c2[N+](=O)[O-])C1 (stereo not given)	14.0
C/C(=N\NC(=S)NC1CCCCC1)c1ccc(Cl)c(Cl)c1	3.7
Cc1c(NS(=O)(=O)c2ccc3c(c2)Cc2ccccc2-3)c(=O)n(-c2ccccc2)n1C	13.6
O=C(Cc1ccccc1[N+](=O)[O-])Nc1nccs1	17.5
CCOC(=O)Cc1csc(NC(=O)C(NC(=O)C2CCCCC2)C(C)C)n1 (stereo not given)	21.1
O=c1cc(-c2ccc([N+](=O)[O-])cc2)c2cc3c(cc2[nH]1)OCCO3	6.0
Cc1cc(=O)[nH]c(SCC(=O)N2CCCc3ccccc32)n1	2.8
FC(F)(F)c1ccc(-c2nnc(-c3ccccn3)c(-c3ccccn3)n2)nc1	7.8
O=S(=O)(NCCn1cccc1)c1ccc2ccccc2c1	18.2
C=C1CC2C3CC[C@@]4(OCOC45COCO5)[C@@]3(C)C(O)CC2[C@@]2(C)CCC(=O)C=C12 (stereo not given in full)	5.5
NC(=O)N/N=C/c1ccc(N2CCOCC2)s1	10.2

Molecules above that have an aryl thioether with sulfur outside any ring, in the order listed:
SMILES	Biofilm kill mix
Cc1nc(SCC(=O)O)c(C#N)c(C)c1CC(=O)c1ccccc1	4.6
Cc1cc(=O)[nH]c(SCC(=O)N2CCCc3ccccc32)n1	2.8

Part of the list above, set out differently.
COc1cc(OC)c(C(=O)N2CCCC2)cc1OC
  Biofilm kill mix: 14.3

Cc1nc(SCC(=O)O)c(C#N)c(C)c1CC(=O)c1ccccc1
  Biofilm kill mix: 4.6

Cc1cc(=O)oc2cc(OCC(=O)OCC(=O)NCCc3ccccc3)ccc12
  Biofilm kill mix: 12.1

(further entries)
SMILES	Biofilm kill mix
COc1ccc(NC(=O)CC2C(=O)N(C)C(=S)N2CCc2ccccc2)cc1 (stereo not given)	7.9
Cc1ccc(NC(=O)C(OC(=O)c2ccc(NC(N)=O)cc2)c2ccccc2)cc1Cl (stereo not given)	10.4
CS(=O)(=O)Nc1ccc(C(=O)Nc2ccc(S(=O)(=O)N3CCCC3)cc2)cc1	8.3
N#CCn1c(CCl)nc2ccccc2c1=O	11.9
CS(=O)(=O)N(Cc1ccccc1)c1ccc(C(=O)NCCSc2ccccn2)cc1	5.5
Cc1cc([N+](=O)[O-])nn1CCCC(=O)NC1CCCCC1	6.0
O=C(CN1CCN(Cc2ccccc2)CC1)N/N=C/c1cccs1	11.5
O=C1/C(=C\c2ccco2)NC(=S)N1c1ccccc1	4.0
Cc1ccc2c(C)cc[n+](CCCS(=O)(=O)[O-])c2c1	18.9
CC(C)C(CO)N1CCN(Cc2ccccc2)CCC1=O (stereo not given)	11.8
Cc1c(C(=O)N/N=C/c2ccc(N(C)C)cc2)[nH]c2ccc(Cl)cc12	16.0
CCOC(=O)c1c(NC(=S)NC)sc2c1CC(C)(C)SC2	18.8
Cc1ccccc1-c1nsc(SCC(=O)NCc2ccc3c(c2)OCO3)n1	9.7
NC(=S)NN=C1C2CC3CC(C2)CC1C3	5.6
COc1ccc(/C=C/C(=O)OCC(=O)NCC2CCCO2)cc1 (stereo not given)	5.7
Cc1n[nH]c(=S)n(/N=C/c2cccs2)c1=O	14.4
CC(=O)N=c1c(C#N)cc2c(=O)n3cccc(C)c3nc2n1Cc1ccco1	11.5
O=C(CCCN1C(=O)c2ccccc2C1=O)Nc1nnc(C2CC2)s1	1.7
CN(C)C(=S)Nc1cccc(F)c1	19.1
Cc1ccc(NS(=O)(=O)c2cc(NC(=O)C(C)Oc3ccccc3)ccc2C)c(C)c1 (stereo not given)	6.6
Cc1cc(C)nc(NC(=O)c2c(C(=O)O)noc2C)n1	18.6
COc1ccc(-c2cn3cc(C)ccc3n2)cc1Br	4.5
Cn1c(N)c(C(=O)CSc2ncn[nH]2)c(=O)n(C)c1=O	14.0
Cc1cccc(N/C=C(\[N+](=O)[O-])S(=O)(=O)c2ccccc2)c1	6.3
C/C(CC(=O)NCC(C)C)=N\NC(=O)COc1cc(C)c(Br)cc1Br	20.5

Further entries.
SMILES	Biofilm kill mix
COc1ccc(-c2c(NC(=O)c3ccco3)n(-c3ccccc3)nc(C)c2=O)cc1	15.9
O=C(Cc1ccccc1)NNC(=O)Nc1ccc(Cl)c(Cl)c1	10.7
Cc1nc(Oc2ccc(S(=O)(=O)N3CCOCC3)cc2Cl)c2c3c(sc2n1)CCCC3	16.6
CCCc1ncc(C(O)c2cccc(OC)c2)n1C (stereo not given)	21.4
COc1cc(CN(C)Cc2nc3cc(C(F)(F)F)ccc3c(=O)[nH]2)ccc1OC(F)F	20.0
O=C(CCC1CCCN(C(=O)CCCc2ccccc2)C1)N1CCN(c2ccccn2)CC1 (stereo not given)	20.4
O=c1[nH]ncc(N2CCN(C(c3ccccc3)c3ccccc3)CC2)c1Cl	13.8
Cc1c(NC(=O)/C(C#N)=C/c2ccc(-c3ccccc3Cl)o2)c(=O)n(-c2ccccc2)n1C	15.6
COc1ccc(S(=O)(=O)NCc2c(-c3ccccc3)noc2C)c(OC)c1	13.7
CC(=O)Nc1cccc(/C(C)=N/NC(N)=S)c1	18.1
COc1cc2c(cc1OC)C1=C(C#N)CCC(=NC(=O)c3ccco3)N1CC2	16.1
Oc1ccc(N=Nc2n[nH]c(-c3ccc(Br)cc3)n2)cc1	16.2
CN1C(=O)[C@@H]2[C@@H]3C[C@@H]([C@H]4ON=C(c5ccc(Cl)cc5)[C@@H]34)[C@@H]2C1=O	8.2
Cc1cc(F)ccc1NC(=O)c1cccnc1	10.2
COc1ccccc1OCc1nc(-c2cccc([N+](=O)[O-])c2)no1	5.4
COc1ccc(NC(C)C(=O)N/N=C/c2ccc([N+](=O)[O-])s2)cc1 (stereo not given)	30.3
CS(=O)(=O)c1ncc(CO)n1Cc1ccccc1	7.8
CCOC(=O)c1nnn(-c2nonc2-n2cccc2)c1-c1cccc([N+](=O)[O-])c1	-11.8
Cc1cc(C[n+]2ccsc2N)c2ncccc2c1	13.4
Oc1nc(-c2ccc(Br)cc2)n2ccncc12	-6.2
COc1ccc(N2CC(C(=O)N/N=C/c3c[nH]c4ccccc34)CC2=O)cc1 (stereo not given)	29.4
CO/N=C/C(C(C)=O)C(=O)Nc1ccc(Cl)cc1Cl (stereo not given)	8.3
CC1CCc2sc(C(=O)Nc3ccc(N4CCOCC4)cc3)cc2C1 (stereo not given)	-6.9
COc1cccc(/C=N/NC(=O)c2ccc3nc[nH]c3c2)c1	12.3
C/C(=N\O)c1cccc(Br)c1	17.6

The final two records of the part before open the next one.
SMILES	Biofilm kill mix
COc1cccc(/C=N/NC(=O)c2ccc3nc[nH]c3c2)c1	12.3
C/C(=N\O)c1cccc(Br)c1	17.6
CCc1cc2cccc(C)c2nc1SCC(=O)Nc1nonc1C	18.9
CCCCC(=O)Nc1nc2c(OC)cc([N+](=O)[O-])cc2s1	19.6
CC(=O)c1ccc(S(=O)(=O)N2CCN(C(C)=O)CC2)cc1	7.4
CCC1(c2ccc(F)cc2)NC(=O)N(CC(=O)Nc2cc(S(=O)(=O)N(C)C)ccc2Cl)C1=O (stereo not given)	27.4
O=C(Nc1ccc([N+](=O)[O-])cc1)Nc1ccc(Cl)cc1F	5.4
OC1CSc2nc3ccccc3n2C1 (stereo not given)	2.9
CC(=O)Nc1cccc(C(=O)/C=C/c2ccc(N(C)C)cc2)c1	23.9
O=C(Cn1cnc2c(nnn2Cc2ccccc2)c1=O)NCc1ccccc1Cl	5.2
COc1ccc(C(=O)OC(COc2ccccc2)Cn2ccnc2)cc1 (stereo not given)	4.1
O=[N+]([O-])c1cccc(-c2ncc3ccccn23)c1	9.8
Cc1ccc(S(=O)(=O)c2c(C)nn(-c3ccccc3)c2OC(=O)c2ccc(Br)o2)cc1	20.8
O=C(C1CCN(Cc2nc(-c3ccc(Cl)cc3)no2)CC1)N1CCOCC1	26.1
Cn1c(=O)c(Oc2ccc(Cl)cc2)c(O)c2ccccc21	15.4
CCCCNC(=O)NCc1cnn(C)c1C	15.1
Cc1cc(=O)c2cccc(Br)c2[nH]1	7.7
COC(=O)C1=C(C)N(CCc2cc(OC)c(OC)c(OC)c2)C(=O)N[C@H]1c1ccc(Br)cc1	19.1
O=C(Nc1ccc(Br)cc1)c1cc2ccccn2n1	8.5
CC(=O)Nc1cc(C(=O)NCc2ccco2)ccc1Sc1ccc(F)cc1	11.6
CC1CCC2(CC1)NC(=O)N(CC(=O)Nc1ccc3c(c1)CCC3)C2=O (stereo not given)	13.8
COc1ccc(NS(=O)(=O)c2cccc(NC(=O)COc3ccc(OC)cc3)c2)cc1	13.7
CCOC(=O)c1cn(Cc2cccc(C)c2)nn1	15.1
CC(=O)Nc1ccc(Oc2ccc([N+](=O)[O-])cc2Cl)cc1	7.6
O=C1NC(=O)/C(=C\c2ccc(Oc3ccc([N+](=O)[O-])cn3)cc2)S1	-0.6
Cc1ccc(C)c2nc3sc(C(=O)N4CCOCC4)c(N)c3cc12	11.5
CCNC(=S)NNC(=O)C1CCN(Cc2ccccc2)CC1	8.8

Next part:
SMILES	Biofilm kill mix
COc1ccc(NC(=S)N2CCN(c3ccccn3)CC2)cc1OC	10.9
O=C(NCCCN1CCOCC1)c1ccc(Cl)cc1[N+](=O)[O-]	22.4
CCN(CC)S(=O)(=O)c1ccc(NC(=S)NC(=O)CC(C)C)cc1	6.5
c1cncc(CNc2cccc(-c3nc4ccccc4[nH]3)c2)c1	19.4
CN(C)CCNS(=O)(=O)c1ccc(N2CCN(c3ccc(F)cc3)CC2)c([N+](=O)[O-])c1	2.4
CCOC(=O)N1CCN(C(=O)CSCc2ccc(Br)cc2)CC1	7.1
CC(=O)c1cccc(NC(=O)C2C(c3ccccc3)C2(Cl)Cl)c1 (stereo not given)	7.5
O=C(c1cccs1)N1CCN(Cc2cccnc2)CC1	9.2
O=Cc1cccn1-c1c(C(=O)O)cnn1-c1ccccc1	21.1
CN(Cc1cnccn1)Cc1nc(Cc2cccc(F)c2)no1	12.5
CCCCOc1ccc(OCCCN2CCOCC2)cc1	18.0
O=C(COC(=O)Cn1cnc2ccccc2c1=O)Nc1ccc(Cl)c(C(F)(F)F)c1	6.3
Cc1ccc(C(=O)OCC(=O)c2ccc[nH]2)s1	-4.6
CC(C)C(=O)Nc1cccc(C(=O)Nc2nnc(C(C)C)s2)c1	-3.0
CC(=NCCCn1ccnc1)c1c(C)[nH]n(-c2ccc([N+](=O)[O-])cc2)c1=O	28.1
CCCC(=O)NC(=S)c1c(C)n(C)n(-c2ccccc2)c1=O	12.6
COC(=O)c1cc(OC)c(OC)cc1NC(=O)Nc1ccccc1F	20.9
O=C(CN1C(=O)NC2(CCCC2)C1=O)N1CCc2ccccc2C1	3.7
COC(=O)C1=C(C)NC2=C(C(=O)CC(C)(C)C2)C1c1ccsc1 (stereo not given)	5.7
CCCc1nnc(NS(=O)(=O)c2ccc(OC)cc2)s1	5.0
O=C(CSCc1ccccc1)N/N=C/c1ccc(OCC(=O)N2CCCCC2)cc1	15.9
COc1ccc(C2C(C(=O)O)CCC(=O)N2c2ccc(C)cc2)cc1OC (stereo not given)	20.8
O=C(CCC1CCCN(C(=O)Cn2cnnn2)C1)NCc1ccccc1F (stereo not given)	1.1
CC(C)C(C(=O)NCc1ccco1)N(C(=O)CNS(=O)(=O)c1ccccc1)c1ccccc1 (stereo not given)	7.9
COc1cc(Cl)cc(C(=O)O)c1OCC(=O)O	-7.3

(next part)
SMILES	Biofilm kill mix
O=C(O)c1ccoc1CN1CCCCC1	8.5
CC1(C)CC(CC(=O)NNc2nc(-c3ccccc3)cs2)C(=O)O1 (stereo not given)	5.8
CC(C)NC(=S)N(C)C1(c2ccccc2Cl)CCCCC1=O (stereo not given)	-2.1
Cc1nn2c(COc3ccc(NC(=O)c4ccccc4)cc3)nnc2c2ccccc12	19.0
Cc1ccc(C(=O)OCC(=O)Nc2ccccc2Cl)c(O)c1	-1.1
COc1ccc(Cc2noc(CN3CCCN(Cc4ccc(F)cc4)CC3)n2)cc1OC	27.5
CCCNC(=O)C/C(C)=N/NC(=O)C(=O)Nc1ccccn1	21.3
COc1ccccc1NC(=O)COC(=O)c1ccc([N+](=O)[O-])s1	5.6
COc1ccc(NC(=O)c2nc[nH]c2C(=O)N(C)Cc2ccccc2)cc1	5.4
C#CCOc1ccccc1CNc1ccccc1	4.6
COc1ccc(C2NC(C(=O)O)Cc3c2[nH]c2ccccc32)cc1CN1CCN(c2ccc(F)cc2)CC1 (stereo not given)	15.5
Cc1ccc(C(=O)N/C(=C\c2cccc([N+](=O)[O-])c2)C(=O)NCc2ccncc2)cc1	18.8
Cc1ccc(S(=O)(=O)n2nc(C)cc2N)cc1	13.7

From PubChem BioAssay
